Screens: PubChem BioAssay, PCMD
Calb biofilm kill: mixture kills Candida albicans biofilm cells | actives 0.02% (n = 120,000) | inhibition, % at 7.6 µM | C. albicans biofilm persisters + clotrimazole, fluorescence viability; primary screen in compound mixtures of four per well;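 active = inhibition above 30.3% in the primary screen of four-compound pools, then above 30% when the compound was retested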;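 also: compounds exposed to preformed 24 h biofilms for 48 h; the number belongs to the whole pool; some results filed as inactive read as strong as hits; inactives centre near 12; 0% = biofilm with clotrimazole alone and 100% = kill control; retested singly at about 60 µM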
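Test system: C. albicans biofilms. Buffer or medium: RPMI/MOPS medium, pH 7.0. Timing: 48 h compound exposure at 37 °C. Technique: Alamar Blue fluorescence. Evaluation: percent inhibition of biofilm viability.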
Active calls of the source: *. An excerpt; rates above refer to the full screens.

SMILES | Calb biofilm kill
Cn1cc(CN2CCc3c([nH]c4ccccc34)C2C(C)(C)C)cn1 (configuration not stated) | 6
O=C(Nc1ccccc1F)C1CC1c1ccccc1 (configuration not stated) | 15
Cc1nc2ccccc2c2oc(C(=O)Nc3ccc(C(C)C)cc3)cc12 | 2
O=C(CCCc1cccs1)Nc1nc(-c2ccc(F)cc2)cs1 | 11
CC(=O)c1ccc(N2C(=O)[C@@H]3C(C(=O)CCN4C(=O)c5ccccc5C4=O)=NN[C@@H]3C2=O)cc1 | 15
COc1ccc(-c2nnc(SCc3cccnc3)o2)cc1 | 8
O=c1[nH]nc(N/N=C/c2ccc(Cl)cc2Cl)c(=O)[nH]1 | 27
CC1(C)CC(=O)C(C(C2=C(O)CC(C)(C)CC2=O)c2ccc(O)c([N+](=O)[O-])c2)=C(O)C1 | 5
Cc1ccc(C)n1-c1ccc(C(=O)N2CCC(C(N)=O)CC2)cc1 | 10
Cc1cc(C)c(C(N)=O)c(Nc2cccc(Cl)c2)n1 | 14
COc1cccc(N2CCN(CC(=O)NC(=O)NCc3ccco3)CC2)c1 | 4
O=C(N/N=C/c1ccc(OC(F)F)cc1OC(F)F)c1cccc(S(=O)(=O)N2CCOCC2)c1 | 15
COC(=O)N/N=C/c1cn(Cc2ccc(Cl)cc2Cl)c2ccccc12 | 21
CC(C)(C)[C@]1(O)CCN2C[C@H]3c4ccccc4CCc4cccc(c43)[C@@H]2C1 | 11
O=C(NN1CCOCC1)c1cc(S(=O)(=O)Nc2cccc(C(F)(F)F)c2)ccc1Cl | 14
COc1cccc(C(=O)Nc2cc(S(=O)(=O)N3CCCCC3)ccc2OC)c1 | 16
Cc1ccc(OC(C)C(=O)O)cc1C (configuration not stated) | 18
O=C(c1ccc(Br)o1)N(Cc1ccccc1)Cc1ccccc1 | 7
CC(C)CNC(=O)COC(=O)c1ccccc1OCC(=O)Nc1ccc(Br)cc1 | 18
COCC(=O)NCc1ccc2c(c1)cc(C)n2C | 15
CCSc1nnc(NS(=O)(=O)c2ccc(C)cc2)s1 | 13
COC(=O)Cn1c2ccc(OC)cc2c2nc(C)sc21 | 7
O=S(=O)(c1ccc2c(c1)OCCO2)N1CCN(c2ncnc3sccc23)CC1 | -15
O=C(c1cnn(C(=O)c2cccc(S(=O)(=O)N3CCOCC3)c2)c1)c1cc(Cl)cc(Cl)c1O | 29
O=C(CSc1nc(-c2ccco2)cc(C(F)(F)F)n1)NCCCN1CCOCC1 | 17

Some of these compounds in order of length of the SMILES, lowest first:
SMILES | Calb biofilm kill
Cc1ccc(OC(C)C(=O)O)cc1C (configuration not stated) | 18
O=C(Nc1ccccc1F)C1CC1c1ccccc1 (configuration not stated) | 15
COCC(=O)NCc1ccc2c(c1)cc(C)n2C | 15
CCSc1nnc(NS(=O)(=O)c2ccc(C)cc2)s1 | 13
Cc1cc(C)c(C(N)=O)c(Nc2cccc(Cl)c2)n1 | 14
O=C(c1ccc(Br)o1)N(Cc1ccccc1)Cc1ccccc1 | 7
O=c1[nH]nc(N/N=C/c2ccc(Cl)cc2Cl)c(=O)[nH]1 | 27
Cc1nc2ccccc2c2oc(C(=O)Nc3ccc(C(C)C)cc3)cc12 | 2
O=C(CSc1nc(-c2ccco2)cc(C(F)(F)F)n1)NCCCN1CCOCC1 | 17
O=S(=O)(c1ccc2c(c1)OCCO2)N1CCN(c2ncnc3sccc23)CC1 | -15
O=C(NN1CCOCC1)c1cc(S(=O)(=O)Nc2cccc(C(F)(F)F)c2)ccc1Cl | 14
CC(C)(C)[C@]1(O)CCN2C[C@H]3c4ccccc4CCc4cccc(c43)[C@@H]2C1 | 11
O=C(N/N=C/c1ccc(OC(F)F)cc1OC(F)F)c1cccc(S(=O)(=O)N2CCOCC2)c1 | 15
O=C(c1cnn(C(=O)c2cccc(S(=O)(=O)N3CCOCC3)c2)c1)c1cc(Cl)cc(Cl)c1O | 29
CC1(C)CC(=O)C(C(C2=C(O)CC(C)(C)CC2=O)c2ccc(O)c([N+](=O)[O-])c2)=C(O)C1 | 5
CC(=O)c1ccc(N2C(=O)[C@@H]3C(C(=O)CCN4C(=O)c5ccccc5C4=O)=NN[C@@H]3C2=O)cc1 | 15

The listing continues.
SMILES | Calb biofilm kill
Cc1ccccc1CSCCNC(=O)c1ccc(Cl)c(S(=O)(=O)N2CCOCC2)c1 | 2
CCC(C)Oc1nc2c(c(=O)n(C)c(=O)n2C)n1C (configuration not stated) | 14
CC1CCN(S(=O)(=O)c2ccc(C(=O)Nc3ccccc3-c3nc4ccccc4[nH]3)cc2)CC1 | 15
COc1cc(CC(=O)Nc2ccc3nc(SC)sc3c2)cc(OC)c1OC | 19
Cc1cccc(NC(=O)N(Cc2cc3cc(C)ccc3[nH]c2=O)CC2COCCO2)c1 (configuration not stated) | 17
CN(C)/C=C/C(=O)c1cnc2sccn2c1=O | 7
CCC1C(=O)CC(c2ccco2)NC1c1ccco1 (configuration not stated) | 14
CC1=CN2C(=N)/C(=C/c3ccco3)C(=O)N=C2S1 | 19
Cn1c(N)c(C(=O)COC(=O)CCc2nc3ccccc3s2)c(=O)n(C)c1=O | 18
S=C(NC1CCCCC1)N1CCOCCOCCN(C(=S)NC2CCCCC2)CCOCCOCC1 | 3
Cc1ccc(S(=O)(=O)CCC(=O)O)cc1C | 7
Cc1cc(C(=O)N/N=C/C=C/c2cccc([N+](=O)[O-])c2)n[nH]1 | 7
Cc1ccccc1OCc1nc2ccccc2c(=O)n1/N=C/c1cn[nH]c1-c1ccc(Br)cc1 | 12
Cc1ccc(C)c(N2CCN(C(=O)c3cccn4c(=O)c5sccc5nc34)CC2)c1 | 15
CCn1cc(/C=C/C(=O)Nc2c(C)nn(Cc3ccccc3C)c2C)cn1 | 14
CCN(CC)S(=O)(=O)c1cccc(NC(=O)COC(=O)C2COc3ccccc3O2)c1 (configuration not stated) | 10
O=C(Nc1cnn(Cc2ccc(F)cc2)c1)c1noc2c1CCCC2 | 24
S=C1NCN(Cc2cccnc2)CN1c1cccc2ccccc12 | 22
Cc1ccc(C(=O)N(CC(=O)NC2CCCC2)c2ccc3c(c2)OCCO3)s1 | 5
CCc1sc(NC(=O)CCC(=O)O)nc1-c1cc2ccccc2oc1=O | 14
O=C(Nc1ccc(Cl)cn1)c1ccc(COc2ccccc2Br)o1 | 18
CCOC(=O)C1=c2/c(=C/c3ccncc3)c(N)c(C(=O)OC)n2C(=O)C(c2ccncc2)S1 (configuration not stated) | -5
CCCCCCCNc1nc(Cl)nc(NCCO)n1 | 10
CCn1nnc(NC(=O)C(C)(c2ccccc2)c2ccccc2)n1 | 24
Cc1ccccc1NC(=O)CNC(=O)c1ccc(C(F)(F)F)cc1 | 11

More entries:
SMILES | Calb biofilm kill
O=C1N(c2ccc3c(c2)OCCO3)C(c2ccccc2)C1(F)F (configuration not stated) | 0
CSc1nc2cc(C)nn2c(-c2ccc(C(C)(C)C)cc2)c1C#N | 24
COc1cc(/C=N/NC(=O)CCc2n[nH]c(=O)[nH]c2=O)cc(OC)c1OC | 9
O=C(Cn1nc2sc3ccccc3n2c(=O)c1=O)c1ccc(Cl)cc1 | 10
COc1cc(C)c(S(=O)(=O)N2CCOCC2)cc1C | -3
Cc1cc(C)n2c(SCCO)nnc2n1 | 37
CCOc1ccc(-c2nnc3ccc(SCC(=O)Nc4nc5ccc(C)cc5s4)nn23)cc1 | 9
O=C(N/N=C/c1nn(-c2ccccc2)cc1-c1ccc(Cl)cc1)c1ccncc1 | 1
C[C@@H]1CN(c2nc3nonc3nc2N2CCSCC2)C[C@H](C)O1 | -3
CCCN(CCC)S(=O)(=O)c1ccc(C(=O)NCc2n[nH]c(=S)n2-c2ccc(Cl)c(Cl)c2)cc1 | 2
O=C(CSCc1c(Cl)cccc1Cl)Nc1cccnc1 | 18
O=C(Cn1c2c(c(=O)n3ncnc13)CCC2)N/N=C/c1cccs1 | 13
CCc1ccc(/C=C2/C(=O)N(CC)C(=S)N2C)s1 | 11
CCN(c1ccccc1)S(=O)(=O)c1ccc(Cl)nc1 | -8
C/C(=N\NC(=O)c1ccccc1)c1ccccc1F | 3
C=CCOc1c(Br)cc(/C=N\n2nnnc2N)cc1OC | 14
CN(C)CCNC(=O)COc1ccc(C23CC4CC(CC(C4)C2)C3)cc1 | -1
COc1cccc(CN2CCNC(=O)C2CC(=O)N(C)CCc2ccccn2)c1 (configuration not stated) | 13
O=C(CSc1nnc(COc2ccccc2)o1)Nc1nccs1 | 20
COCc1c(C(=O)N/N=C/C2CC=CCC2)nnn1-c1nonc1N (configuration not stated) | 13
COc1ccc(CCNC(=O)c2ccc(-c3ccc([N+](=O)[O-])cc3Cl)o2)cc1 | 4
COc1ccc(OC)c(-n2c(-c3cccc(C)c3)n[nH]c2=S)c1 | 14
CC(C)CCn1c(=O)c2ccccc2n2c(CCl)nnc12 | 14
CCNC(=S)Nc1cccc(S(=O)(=O)NC2=NCCC2)c1 | 3
CN(C)c1nc(N)c([N+](=O)[O-])c(NCc2ccccc2)n1 | 10

Further results
SMILES | Calb biofilm kill
CC1Cc2ccccc2N1CC(=O)NCc1ccc2c(c1)OCO2 (configuration not stated) | 14
O=[N+]([O-])c1c(NCCO)cc(N2CCC3(CC2)OCCO3)c2nonc12 | 4
CC(C)(C)C1=NN(c2ccc([N+](=O)[O-])cc2)C(c2ccccc2)C1 (configuration not stated) | 12
O=C(Cc1coc2ccc3ccccc3c12)NC1CCCc2ccccc21 (configuration not stated) | 22
Cc1ccc(C2(C)NC(=O)N(CC(=O)Nc3c(C)n(C)n(-c4ccccc4)c3=O)C2=O)cc1 (configuration not stated) | 21
CCS(=O)(=O)c1cc([N+](=O)[O-])c(Sc2ccccc2NC(C)=O)s1 | 13
CSc1cccc(NC(=O)CCc2ccccc2)c1 | 11
CCOc1ccc(NC(=S)N2c3ccccc3CC2C)cc1 (configuration not stated) | 11
CC(NCC1(N2CCOCC2)CCCCC1)C(=O)Nc1ccc(Cl)cc1Cl (configuration not stated) | 15
O=C(O)c1ccccc1-n1c(-c2ccccc2)cc2c1CCCC2=O | 13
CSc1ccc2c(c1)C(N1CCN(C)CC1)Cc1ccccc1S2 (configuration not stated) | 14
O=C(CO/N=C/c1ccc(OC(F)F)cc1)N1CCc2ccccc21 | 5
CC(=O)N1CCc2ccc(NC(=O)c3c(-c4c(Cl)cccc4Cl)noc3C)cc21 | 10
O=C(c1ccc(C(F)(F)F)cc1)C1CCCN(C(=O)CN2C(=O)CSC2=O)C1 (configuration not stated) | 1
CCN(CC)CCNC1=CC(=O)OC12CCCCC2 | 12
COc1cc(/C=N/Nc2cccc(C)c2)cc(Br)c1O | 13
CSCCC(NS(=O)(=O)c1ccccc1F)C(=O)OCc1ccccc1Cl (configuration not stated) | 18
O=C(CN1C(=O)NC2(CCCCCC2)C1=O)NC1CCCCCCC1 | 5
CCOC(=O)Cn1c(-c2ccccc2)ccc(C#N)c1=O | 6
O=C(CN1CCN(c2ccccc2F)CC1)N1N=CCC1c1ccccc1 (configuration not stated) | 7
CCOc1ccc2nc(SCC(=O)N3c4ccccc4Sc4ccccc43)sc2c1 | 13
COc1ccc(CCNC(=O)CCN2C(=O)c3ccccc3C2=O)cc1OC | 8
O=C1NCC(COc2ccc(Cl)cc2)O1 (configuration not stated) | 5
COC(=O)Cc1c(C(=O)OC)nnn1-c1ccc(OC(F)(F)F)cc1 | 2
Cc1ccc(C(=O)NC(=C(Cl)Cl)S(=O)(=O)c2ccc(C)cc2)cc1 | 17

(next part)
SMILES | Calb biofilm kill
Cc1ccc2nc(N3CCOCC3)c(C=O)c(=O)n2c1 | 10
O=C(c1ccc(N2CCCCC2)c([N+](=O)[O-])c1)N1CCN(c2ccccn2)CC1 | 10
COCC1CCN(C(=O)c2cc(COc3ccc4ncccc4c3)on2)CC1 | 15
CC(=O)c1ccc(NC(=O)CN2C(=O)CCC2=O)cc1 | 2
CCOc1ccc(N=C2NC(=O)C(CC(=O)Nc3ccc(OC)cc3)S2)cc1 (configuration not stated) | 25
C=CCNc1nc(S(=O)Cc2ccc(C)cc2)nc2c1CCCC2 (configuration not stated) | 15
O=C(CSc1nc(O)c(Cc2ccccc2)c(=O)[nH]1)Nc1nnc(SCc2ccccc2)s1 | 10
CS(=O)(=O)N(CC(=O)Nc1cccc([N+](=O)[O-])c1)c1ccccc1F | 8
CC(C)(C)c1ccc(/C=C2/SC(N3CCCC3)=NC2=O)cc1 | 13
Cc1cccc(C)c1OCC(=O)N(Cc1cccs1)C1CCS(=O)(=O)C1 (configuration not stated) | 22
COc1ccc(/C=N/NC(=O)c2ccc(CN3c4cccc5cccc(c45)S3(=O)=O)cc2)cc1 | 9
O=C(CSc1nnnn1-c1ccc(F)cc1)c1ccc(O)c(O)c1 | 9
COCCSc1nnc(NS(=O)(=O)c2ccc(F)cc2)s1 | 16
O=C(c1ccc(Cl)s1)N1CCN(c2ncccn2)CC1 | 19
CCOP(=O)(c1ccccc1)c1nc(-c2ccccc2C)oc1NCc1ccccc1 (configuration not stated) | 7
CC(=O)CCC(=O)c1ccc2ccccc2c1 | 11
COc1ccc(N2C(=O)CCC(C(=O)N(C)CCc3ccccn3)C2c2ccc(OC)c(OC)c2)cc1 (configuration not stated) | 28
CCCCn1c(SCc2nc(N)nc(N3CCCCC3)n2)nc2c1c(=O)n(C)c(=O)n2C | 2
CCOc1ccccc1OCCCNCc1ccco1 | 7
CC1CCN(C(=O)c2ccc(NS(=O)(=O)c3cccc4cccnc34)cc2)CC1 | 12
Cc1ccccc1C1c2[nH]c3ccccc3c2CCN1Cc1cccn1-c1ncccn1 (configuration not stated) | 35
CC(=O)Nc1ccc(S(=O)(=O)CCC(=O)O)cc1 | -9
COc1ccc(-c2nc(-c3ccccn3)nc(N3CCN(C)CC3)c2C#N)cc1 | 5
O=C(Nc1ccc(N2CCN(C(=O)C3CC3)CC2)cc1)c1cccs1 | 14
CC(C)(C)c1nc2ccc([N+](=O)[O-])cc2[nH]1 | 6
